# HCMV UL50-53 inh – inhibitors of HCMV UL50-UL53 nuclear egress complex interaction; HTRF UL50-UL53 interaction, normalized percent inhibition; inhibition, % (concentration not given with the values); 0.15% of 190,000 active;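 active = both replicates at 50% or more, plus weaker picks with an unusually low signal ratio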;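 also: stock transfer was 100 nL into about 20 µL; 0% = negative control wells and 100% = wells with untagged competitor protein; inactives centre near -12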
# Sa growth 42C – inhibitors of Staphylococcus aureus growth at 42 °C; 0.53% of 170,000 active; S. aureus RN4220 growth, OD600, 20 h; hits give low values; relative growth, % (test concentration not listed);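 active = growth at 42 °C up to 50% and 20 or more points under that at 30 °C, or under 10% at both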;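 also: 300 nL library stock went into each well; scaled to the means of positive and negative controls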
# GIV-Gai inh – inhibitors of GIV GBA-motif binding to rat Galpha-i3 | 0.42% of 210,000 active | P08753 | Galpha-i3/FITC-GIV peptide fluorescence polarization, 90 min; hits give low values; scaled: aluminum fluoride 0%, vehicle 100% | percent of control (FP), % (no concentration beside the values) | AID 1224905;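 active = replicate mean at 85% of control or lower, very high polarization wells dropped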;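 also: wells of about 15 µL received 100 nL stock; the first replicate is given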
# Target sequence (P08753 whole entry, looked up): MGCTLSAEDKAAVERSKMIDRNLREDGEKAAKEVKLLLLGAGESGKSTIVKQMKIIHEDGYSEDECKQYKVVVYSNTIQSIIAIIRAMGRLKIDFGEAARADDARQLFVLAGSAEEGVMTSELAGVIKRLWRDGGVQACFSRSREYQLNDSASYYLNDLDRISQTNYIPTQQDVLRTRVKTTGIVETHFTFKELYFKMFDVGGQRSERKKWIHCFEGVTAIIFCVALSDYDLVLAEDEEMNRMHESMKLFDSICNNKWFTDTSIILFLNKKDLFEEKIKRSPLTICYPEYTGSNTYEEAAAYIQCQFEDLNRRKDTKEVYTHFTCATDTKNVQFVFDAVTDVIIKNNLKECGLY
# Sa growth 42C second temp – recorded beside Sa growth 42C, whose call it bears; relative growth, %; measured here: growth at 30 °C;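 optical density after 20 h as mean of two plates; 100% = untreated growth and lower means inhibition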
# Starred values were filed as active, the others as inactive; x = no result given; & = joins results of further samples.
SMILES,HCMV UL50-53 inh,Sa growth 42C,Sa growth 42C second temp,GIV-Gai inh
Cc1ccc2c(c1)C1CN(C)CCC1N2 (configuration not stated),12.9,76.8,94.7,84.0*
CC1CN=C(NCCc2ccccc2)S1 (configuration not stated),8.1,105.8,94.6,x
N#CC(C#N)=Cc1cccc(OC(F)F)c1,2.5,96.4,84.4,x
C#CCN1CCCC2(CCOC(C)(CC)C2)C1 (configuration not stated),1.5,88.9,96.2,96.6
O=C1NC(=O)C(Cc2ccccc2)C(=O)N1,8.1,112.9,97.8,108.7
CC(C)N1CCC(n2nnc3ccccc32)CC1,-1.1,95.6,89.9,97.9
CCCN1CCO[C@@H]2c3cc(O)ccc3OC[C@H]21,7.4&0.9,x,x,105.9
Cc1cc(/C=C2\C(=O)NC(=O)N(c3ccc(Br)cc3)C2=O)c(C)n1-c1cc(C(=O)O)cc(C(=O)O)c1,-7.2,x,x,108.4
Nc1nnc(CCN2CCCCC2)s1,-4.5,93.3,87.1,x
Cc1ccc(-n2cc(C3=CCN(CC(=O)N4CCN(c5ccccn5)CC4)CC3)cn2)cc1,-28.0,x,x,101.1
CN(C)P(=NC(=S)Nc1ccccc1)(N(C)C)N(C)C,-1.3,81.7,86.2,x
CSc1nnc(C(C)(C)C)c(=O)n1N,-9.3,64.6,113.4,100.7
O=C(NC(=S)Nc1cc(C(F)(F)F)cc(C(F)(F)F)c1)Oc1ccccc1,13.2,52.5,20.6,107.1
CCCC/C(=N\O)c1c(C)[nH]c2ccccc12,4.8,141.7,105.5,x
COc1ccccc1CCN(Cc1ccco1)Cc1ccco1,x,92.8,93.1,105.4
COc1ccc(CN2CCN(C(=O)COc3ccccc3)CC2)cc1OC,-23.2,92.6,88.8,100.4
N=C1SC2CS(=O)(=O)CC2N1Cc1ccccc1 (configuration not stated),x,84.0,83.7,101.0
CCOc1ccc(CN(CCc2ccc3c(c2)OCO3)Cc2ccc(OC)c(Br)c2)cc1,8.4,90.4,86.8,107.2
CCOC(=O)C1=C(N)Oc2c(c(=O)oc3ccccc23)C1c1c(F)cccc1Cl (configuration not stated),5.6,x,x,102.7
CCN1CCN(Cc2ccccc2C#N)CC1,-11.5,79.0,84.9,98.8
CCCCCCC1C(=O)NC(=S)N(c2ccccc2)C1=O (configuration not stated),-5.0,x,x,106.3
CC(=O)OC1(c2ccccc2)CC(C(C)(C)C)CN(C(C)(C)C)C1 (configuration not stated),-5.1,78.7,94.4,x
CCCCc1ccc(N/C=c2/c(C)c(C#N)c3nc4ccccc4n3c2=O)cc1,x,103.3,83.9,90.2
O=C1C2CC(CN3CCCC[C@@H]23)[C@H]2CCCCN12 (some centres not stated),-19.6,107.0,92.8,105.8
CCCC(C)(COC(N)=O)COC(=O)NC(C)C (configuration not stated),-11.9&-18.5&-29.1,98.8,92.5,x
Cc1ccc(OCC(=O)N2CCN(Cc3ccc(F)cc3)CC2)cc1,14.0,98.5,103.3,104.3
O=C1NC(=O)C(=Cc2ccc(-c3cc(C(=O)O)ccc3Cl)o2)C(=O)N1,-18.9,92.9,83.0,59.4*
CCOc1cc(C(F)(F)F)cnc1/C(N)=N/OC(=O)NC,-14.0,91.0,86.7,104.1
N#CC(C#N)=NNc1ccc(-n2ccc(C(F)(F)F)n2)cc1,-51.3,-0.4*,-0.7*,98.4
CC(C)C12CN3CCN(CC(C3)/C1=N/N)C2,-6.0,96.9,95.0,x
CN1CCc2c(c(N3CCCCC3)nc3n[nH]c(N)c23)C1,-2.9,68.4,92.2,x
CCC(C)n1[nH]c(=O)c2c1NC(=O)CSC2c1ccccc1 (configuration not stated),-13.2,x,x,90.1
CCCSc1nc2ccccc2c(=O)n1-c1ccccc1OC,-32.4,98.4,87.1,99.8
O=c1cc(CN2CC=C(c3ccccc3)CC2)nc2scc(-c3ccccc3)n12,-24.9,128.1,95.6,x
CCOc1ccc(C2CC(c3c(O)n(C)c(=O)n(C)c3=O)=NN2)cc1 (configuration not stated),-15.2,x,x,96.5
CN=Cc1c(O)[nH]c(=O)[nH]c1=O,-7.7,122.5,90.0,102.6
O=C(O)CCn1cc(C=C2C(=O)NC(=O)NC2=O)c(-c2cc3ccccc3oc2=O)n1,-32.3,109.4,86.6,x
CCCc1c(C)nc(SCC(=O)C(C)(C)C)nc1OC(=O)N(C)C,-18.6,92.9,90.4,99.1
O=C(C(Cc1ccccc1)NS(=O)(=O)c1cccc2nsnc12)N1CCC2(CC1)OCCO2 (configuration not stated),x,90.1,86.7,101.3
CN(CC1CC=CCC1)CC(O)c1ccccc1 (configuration not stated),-1.0,116.4,83.4,98.3
Cc1c(C(=O)N2CCC3(CC2)OCCO3)oc2ccc(S(=O)(=O)N3CCCCC3)cc12,-33.8,88.4,86.6,100.4
Cc1cccc(-n2nc(C)c3c2NC(=O)CSC3c2ccccc2Cl)c1 (configuration not stated),-2.3,78.1,66.0,96.9
CN1CCC(N(C)c2ncnc3ccc(Br)cc23)CC1,-0.7,100.9,96.6,99.6
Cc1csc2sc(C=C(C#N)C#N)c(C)c12,-17.8,98.9,93.5,104.6
CSc1ccc(CN2CCN(Cc3cccc(C)c3)CC2)cc1,-3.9,111.5,92.6,x
O=c1c2ccccc2nc(-c2ccccc2)n1-c1cccc(O)c1,1.5,114.5,97.8,103.5
Fc1cccc(Cl)c1CN1CCN(Cc2c(F)cccc2Cl)CC1,-8.0,99.5,85.0,97.1
CCOC(=O)c1sc2nc3c(cc2c1N)CN(C(C)C)CC3,-123.4,x,x,124.6

# Filtered by structure: the entries above with an aryl thioether with sulfur outside any ring (four)
SMILES,HCMV UL50-53 inh,Sa growth 42C,Sa growth 42C second temp,GIV-Gai inh
CSc1nnc(C(C)(C)C)c(=O)n1N,-9.3,64.6,113.4,100.7
CCCSc1nc2ccccc2c(=O)n1-c1ccccc1OC,-32.4,98.4,87.1,99.8
CCCc1c(C)nc(SCC(=O)C(C)(C)C)nc1OC(=O)N(C)C,-18.6,92.9,90.4,99.1
CSc1ccc(CN2CCN(Cc3cccc(C)c3)CC2)cc1,-3.9,111.5,92.6,x

# Next entries:
SMILES,HCMV UL50-53 inh,Sa growth 42C,Sa growth 42C second temp,GIV-Gai inh
CCOC(=O)CSC(c1ccccc1)c1c(C(=O)OC)[nH]c2ccccc12 (configuration not stated),-32.3,161.6,86.9,106.8&97.3
CN1CCc2nc3sc(C(N)=O)c(N)c3cc2C1,-96.7,88.7,87.6,102.0
CCP(=O)(CC)Nc1cccc(C(F)(F)F)c1,-21.0,106.9,79.3,104.7
CN(C)[C@@H]1C(=O)C(C(N)=O)=C(O)[C@@]2(O)C(=O)C3=C(O)c4c(O)cccc4[C@@](C)(O)[C@H]3[C@H](O)[C@@H]12,3.2&-7.5&-11.2,-0.6*,-0.5*,x
CCC(C(=O)Nc1ccc(C(C)C)cc1)N1C(=O)CN=C(c2ccccc2)c2ccccc21 (configuration not stated),11.0,x,x,102.3
CNC1CCCC1,0.9,95.9,91.3,x
Nc1nonc1NC(=O)COC1CN2CCC1CC2 (configuration not stated),-8.6,106.6,91.9,99.9
COC(=O)C1(O)c2ccccc2-c2ccccc21,-11.1,116.0,104.5,95.2
O=C(NC1CCCCC1)c1cc2cccnc2n(Cc2ccc(F)cc2)c1=O,-7.8,x,x,112.8
COc1ccc(OC)c(C(O)C(C)N)c1 (configuration not stated),-15.3&-15.8&-11.9,94.3,86.7,98.8
c1ccc2c(NC3=NCCS3)cccc2c1,17.8,123.9,84.2,83.4*
CC(=O)Nc1c(O)[nH]c(=S)[nH]c1=O,-2.6,101.7,72.8,103.8

# Two entries drawn at random from the list so far, as already listed:
SMILES,HCMV UL50-53 inh,Sa growth 42C,Sa growth 42C second temp,GIV-Gai inh
COc1ccc(OC)c(C(O)C(C)N)c1 (configuration not stated),-15.3&-15.8&-11.9,94.3,86.7,98.8
CCOC(=O)CSC(c1ccccc1)c1c(C(=O)OC)[nH]c2ccccc12 (configuration not stated),-32.3,161.6,86.9,106.8&97.3

# (continued)
SMILES,HCMV UL50-53 inh,Sa growth 42C,Sa growth 42C second temp,GIV-Gai inh
Fc1ccc(NC2=NCCN2)cc1,-38.7,115.5,93.9,98.4
CC(c1ccccc1)n1cncc1C(=O)N1CCCC1=O (configuration not stated),-15.5,76.8,88.7,102.5
CCC(N)C(=O)c1ccc(Cl)cc1 (configuration not stated),0.9,97.4,105.2,95.2
C=CCNC(=O)c1c(N)n(Cc2ccccc2)c2nc3ccccc3nc12,-2.0,80.0,90.2,x
CC1c2cccn2-c2ccccc2CN1C(=O)Nc1ccccc1Br (configuration not stated),-12.6,x,x,103.7
Cc1ccccc1-n1c(O)c(/C=N/c2nccs2)c(=O)[nH]c1=O,x,89.7,102.5,152.5
CN1CCc2nc(SCc3cccc(Cl)c3)c(C#N)cc2C1,x,82.7,65.6,104.6
COCCNC(=O)c1c(N)n(Cc2ccccc2)c2nc3ccccc3nc12,-25.1,81.2,85.6,x
O=C(CCc1nc(C2=CCN(Cc3cccc(Cl)c3)CC2)no1)Nc1ccccc1F,x,102.8,89.3,114.8
Cc1ccc(OCC(=O)N2CCN(CC3CC4C=CC3C4)CC2)cc1 (configuration not stated),-1.4,115.5,90.8,x
O=C(CCn1nc(-c2ccc(Cl)cc2)ccc1=O)N1CCC2(CC1)OCCO2,x,96.7,73.3,100.0
CCN(CC(=O)c1ccccc1Cl)C1CCCCC1,-31.6,64.8,73.3,x
CCOC(=O)C1=C(NC(=O)c2ccccc2)c2ccccc2CC12CCCC2,-2.8,78.4,94.5,x
CCCCC1(C)NCCN2C(=O)CSC21 (configuration not stated),-10.5,87.4,86.5,98.7
CC(C)NP(=O)(NC(C)C)OP(=O)(NC(C)C)NC(C)C,-9.8,x,x,100.7
CCOc1ccc2c(c1)C(SCC(=O)N1CCC3(CC1)OCCO3)CC1(CCCCC1)O2 (configuration not stated),9.2,86.8,91.4,108.9
CNC(=O)O/N=C/c1[nH]ncc1Br,-34.6,86.6,81.0,105.1
O=C(c1cc2nc(-c3ccccc3)cc(-c3ccccc3)n2n1)N1CCC2(CC1)OCCO2,-36.9,80.4,64.3,109.9
Cc1cccc(CNCCc2ccccc2)n1,5.7,85.2,79.8,104.1
NCCc1c[nH]c2ccc(Cl)cc12,-13.2,88.1,89.7,99.7
CN1C(=O)N(C(=O)c2ccccc2)C(=O)C(C)(C2=CCCCC2)C1=O (configuration not stated),-17.5,112.2,115.0,102.3
C=CCOC(=O)c1cc(-c2ccc(C=C3C(=O)N(C)C(=O)N(C)C3=O)o2)ccc1Cl,-0.3,x,x,101.2
COc1ccc2[nH]c3c(c2c1)CCNC3C (configuration not stated),-4.9&-5.7,x,x,103.6
CN(C)C(=O)Oc1cccc2cccnc12,-12.6,101.7,86.9,93.9
CCN=Cc1c(O)n(C)c(=O)n(C)c1=O,-10.0,107.7,104.0,89.5
CN(C(=O)Oc1ccc(C(C)(C)C)cc1)c1ccccc1,-4.8,114.9,94.1,101.9
CC(C)c1ccc(OCC(=O)N2CCN(CCc3ccccn3)CC2)cc1,-32.6,104.2,86.1,100.2
O=C(COC(=O)Cc1ccccc1)Nc1cccnc1Cl,-9.8,96.2,92.4,x
O=C1NC(=O)C2(CCOCC2)C(=O)N1,-17.3,79.4,87.8,x
Cc1ccc(C(=O)Oc2cccc3cccnc23)cc1S(=O)(=O)N1CCC(C)CC1,-26.7,x,x,105.0
Cc1ccc(Oc2c(C)nc(C)nc2OC(=O)N(C)C)cc1,-26.2,111.6,89.9,99.5
CC12CCC3C(CC=C4CC(OC5CCCCO5)CCC43C)C1CCC2=O (configuration not stated),2.3,95.8,100.3,x
O=C1CC(c2ccccc2)CN1 (configuration not stated),-24.9,80.2,84.5,100.5
CCN1CCN(C(=S)N[P+](c2ccccc2)(N(CC)CC)N(CC)CC)CC1,2.0,88.6,88.3,x
CCCC(=O)N1CCC2(CC1)OCCO2,10.7,103.7,108.5,104.8
O=C(Cc1ccccc1)N1CCN(CCc2ccccn2)CC1,-16.9,x,x,100.5
CN1C(=O)C(=Cc2ccccc2OCCOc2ccc([N+](=O)[O-])cc2)C(=O)N(C)C1=O,-25.2,x,x,103.0
C=CC1CN2CCC1CC2C(OC(=O)c1ccco1)c1ccnc2ccccc12 (configuration not stated),x,117.0,94.0,96.5
O=C(O)Cn1cc(C(=O)c2ccccc2F)c2ccccc21,x,75.8,86.8,95.0
Fc1cccc(Cl)c1C1N2CCCCN12 (configuration not stated),-10.7,98.9,79.5,x
Cc1cnc(C(=O)Nc2ccc(Cl)cc2C(=O)c2ccccc2)cn1,-16.9,102.3,92.2,x
CC(C)(C)NC(=O)/C=C/c1ccc(Cl)cc1,-20.5,103.0,98.3,97.4
O=C(Nc1ccncc1)c1cc2cccnc2n(Cc2ccccc2)c1=O,-47.8,84.4,81.4,109.3
Oc1ccc2c3c1O[C@H]1c4[nH]c5ccccc5c4C[C@@]4(O)[C@@H](C2)N(CC2CC2)CC[C@]314,-21.8,95.2,79.5,104.9
O=C(c1ccc2c(c1)N(Cc1c(F)cccc1Cl)C(=O)c1ccccc1S2)N1CCC2(CC1)OCCO2,-25.2,97.8,90.2,101.8
CN1C2C=C3[C@H](C1CC2)[C@@H](c1ccc(Cl)cc1)C(C#N)=C(N)C3(C#N)C#N (some centres not stated),-18.4,87.8,86.3,x
c1cnc2c(OCC3CCCN4CCCCC34)cccc2c1 (configuration not stated),-12.7,106.0,116.1,x
CC(C)C/C(=N/O)c1c[nH]c2ccccc12,-3.5,110.3,82.2,106.5
C#CCOc1ccc2c(c1)c(C(=O)OCC)c(C)n2Cc1ccccc1,-13.5,x,x,98.1

# Source: PubChem

# Not all compounds are listed, so the mix of outcomes need not match the whole.
